Source: PubChem (National Center for Advancing Translational Sciences (NCATS))
D2 PAM = Beta-Arrestin HTS for Positive Allosteric Modulators of the Human D2 Dopamine Receptor: Potentiators | D(2) dopamine receptor (Homo sapiens), P14416 | DiscoveRx D2 beta-arrestin cells, luminescence, 90 min; 100% = 57 uM dopamine signal | potentiation, % (concentration not given with the values) | 360,000 tested, 0.23% active; active = potentiation of 50% or more; inconclusive = 30% to 50%; inactive = 30% or less;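 further: compound concentration not given in the record; tested on top of an EC20 dose of dopamine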
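PathHunter D2 cells, attached overnight at 37 deg C, received compound in DMSO plus dopamine at EC20 (50 nM final) for 90 min at 37 deg C. Beta-arrestin recruitment was read as luminescence after 1 h with detection reagent at ambient temperature.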
D2 ag = Beta-Arrestin HTS for Positive Allosteric Modulators of the Human D2 Dopamine Receptor: Agonists; D(2) dopamine receptor (Homo sapiens), P14416; activation, % (no concentration beside the values); DiscoveRx PathHunter D2 beta-arrestin, luminescence, 90 min; 100% = 57 uM dopamine signal; 360,000 tested, 0.084% active; in the data active = activation above about 40%; inconclusive = about 15% to 40%; inactive = below about 15%; further: compound concentration not given in the record; the text of the record calls up to 30% inactive
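DiscoveRx PathHunter D2 beta-arrestin cells (2,100/well) attached overnight, then compound-stimulated 90 min at 37 C in HBSS/10 mM HEPES/0.1% Tween-20 buffer; beta-galactosidase complementation read by luminescence after 1 h at ambient temperature. Dopamine 57 uM final (EC100) as control.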
PINK1 modulator = A Quantitative High throughput Screen to Identify Chemical Modulators of PINK1 Expression | PINK1 immunofluorescence, high-content cytometry, 24 h | Potency, µM (top dose mostly 76.6 µM), for inactives: at the top dose activation (PINK1 increase), actives largely listed as activators | 410,000 tested, 0.2% active; active = well fitted activation curve with a large enough effect; inconclusive = small, poorly fitted or top-dose-only effect; inactive = flat fitted curve, though single readings scatter; cell line not stated here;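 further: potency means the concentration at half of the fitted maximal effect; % of control where 0% means no effect; nearly all actives have a fitted effect of over 65% in size; a mitochondrial uncoupler was the plate control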
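Measures PINK1 amount and localization on or inside mitochondria by immunofluorescence. Stable cells get compounds at 5 concentrations for 24 hours before fixation and staining; CCCP controls included.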
TRPV1 potentiator = HTS Assay for Compounds that Act as Potentiators of the Vanilloid Receptor 1. 320,000 tested, 0.02% active. TRPV1-expressing cells, Fluo-8 calcium influx, capsaicin EC20 potentiation; host cell line not named in the record; control for the full effect not named in the record. potentiation, % at 8.33 µM. Transient receptor potential cation channel subfamily V member 1 (Homo sapiens), Q8NER1; active means potentiation above 80%; inconclusive means 30% to 80%; inactive means below 30%; further: 0% is about no effect
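Fluo-8 calcium influx in TRPV1-expressing cells, kinetic read (ex 480/em 520 nm). Compound added and read 3 min for agonist activity, followed by capsaicin at EC20 final and 2 min further read for enhancement.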
Sfp inh = qHTS Assay for Inhibitors of Bacillus subtilis Sfp phosphopantetheinyl transferase (PPTase); 4'-phosphopantetheinyl transferase ffp (Bacillus subtilis), Q9F4F7; Biochemical Sfp PPTase activity, qHTS; Potency, µM, for inactives: max response, negative = inhibition, usual class: inhibitors; 310,000 tested, 3.5% active; AID 1490, 2009; active means well fitted inhibition curve with a large enough effect; inconclusive means small, poorly fitted or top-dose-only effect, or another doubt; inactive means no such curve, though single readings can be large or run the other way;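 further: the enzyme is Sfp with the accession as filed and its product quenches rhodamine fluorescence; potency means the concentration at half of the fitted maximal effect; 0% = enzyme reaction without inhibitor and -100% = no enzyme wells; top concentration of the series not given in the record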
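Compounds were incubated with enzyme (final 15 nM) for 15 min at room temperature before substrate addition started the reaction. Fluorescence at 525 nm excitation, 598 nm emission was recorded immediately and after 30 minutes.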
Six1-Eya2 inh = qHTS Assay for Inhibitors of the Six1/Eya2 Interaction; AlphaScreen GST-Six1/His-Eya2 binding, biochemical; hits give low values; control for the full effect not named in the record; AID 651725, 2012; activity change, % (no concentration beside the values); 360,000 tested, 0.56% active; in the data active = activity change below about -65%; inconclusive = about -30% to -65%; inactive = above about -30%; further: on the % scale 0 is the no-effect control and ±100 the full control effect; compound concentration not given in the record
Target sequence (O00167 whole entry, looked up): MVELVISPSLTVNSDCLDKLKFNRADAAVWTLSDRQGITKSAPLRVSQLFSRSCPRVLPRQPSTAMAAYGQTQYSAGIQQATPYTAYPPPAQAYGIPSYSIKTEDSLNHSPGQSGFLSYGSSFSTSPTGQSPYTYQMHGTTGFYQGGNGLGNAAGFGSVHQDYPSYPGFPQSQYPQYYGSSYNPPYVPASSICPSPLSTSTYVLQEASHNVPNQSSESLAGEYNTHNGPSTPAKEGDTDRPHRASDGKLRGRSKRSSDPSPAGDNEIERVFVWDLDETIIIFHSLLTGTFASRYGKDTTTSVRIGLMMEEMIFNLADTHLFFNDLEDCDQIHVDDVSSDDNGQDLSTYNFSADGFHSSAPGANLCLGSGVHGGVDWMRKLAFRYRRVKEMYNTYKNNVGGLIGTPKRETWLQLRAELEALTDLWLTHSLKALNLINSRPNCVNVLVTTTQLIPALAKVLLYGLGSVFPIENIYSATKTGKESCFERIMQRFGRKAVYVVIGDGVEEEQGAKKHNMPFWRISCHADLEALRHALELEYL
Target sequence (Q15475 whole entry, looked up): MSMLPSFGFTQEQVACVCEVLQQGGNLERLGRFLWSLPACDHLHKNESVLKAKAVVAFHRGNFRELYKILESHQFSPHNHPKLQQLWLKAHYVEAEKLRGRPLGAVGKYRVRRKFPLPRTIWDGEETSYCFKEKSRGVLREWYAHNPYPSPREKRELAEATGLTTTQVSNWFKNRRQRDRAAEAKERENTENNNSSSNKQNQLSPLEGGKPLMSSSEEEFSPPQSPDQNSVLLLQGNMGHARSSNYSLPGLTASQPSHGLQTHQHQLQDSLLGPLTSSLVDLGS
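AlphaScreen luminescence read after one hour at 37 °C in darkness. Pin-transferred compounds met GST-Six1 and His-Eya2 protein (5X stock 250 nM/500 nM) plus glutathione donor and Ni-chelate acceptor beads (5X, 50 ug/mL).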
CtBP-E1A inh = qHTS Assay for Inhibitors of the CtBP/E1A Interaction; CtBP / adenovirus E1A interaction (AlphaScreen); AlphaScreen GST-E1A/His-CtBP binding, 1536-well; hits give low values; control for the full effect not named in the record; activity change, % (no concentration beside the values); 340,000 tested, 0.49% active; AID 651724, 2012; in the data active means activity change below about -65%; inconclusive means about -30% to -65%; inactive means above about -30%; further: on the % scale 0 is the no-effect control and ±100 the full control effect; compound concentration not given in the record
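Protein mix (5X: 125 nM each GST-E1A, His-CtBP) was incubated with pinned compound 2 h at 37 deg C in dark, in 50 mM Tris pH 8.0 buffer with 300 mM NaCl. Glutathione donor and nickel acceptor beads followed; AlphaScreen signal read after 1 h.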
* = called active by the depositor; ? = inconclusive; / = no result given; & = joins results of further samples; [ ] = dose if it differs, or a comment. An unsorted share of the library; any-hit rate near 3.7%.

Results follow in this order: D2 PAM | D2 ag | PINK1 modulator | TRPV1 potentiator | Sfp inh | Six1-Eya2 inh | CtBP-E1A inh
- Cc1cc(C)c(NC(=O)Cn2nnc(C(=O)NCc3ccc4c(c3)OCO4)c2N)c(C)c1
  -11 | -2.9 | 8.2% | 5 | -1% | 2 | -4
- C=CCc1cccc(CNc2cnc3ccccc3c2)c1O
  10 | 8.0 | 10% | ? | -6% | 12 | /
- COc1ccc(-c2nc3n(n2)C(c2ccccc2Cl)C(C(N)=O)=C(C)N3)cc1 (stereo unspecified)
  1 | 4.2 | 1.5% | / | 18% | -7 | 3
- Cc1ccc(N2C(=O)C3CC3C2=O)cc1 (stereo unspecified)
  -6 | -1.7 | 1.1% | 10 | 16% | 2 | 6
- COc1ccc(S(=O)(=O)NCC(=O)N(CC(=O)NCc2ccco2)Cc2ccccc2)cc1
  1 | 5.1 | -2.1% | 2 | 7% | -3 | -3
- CC(=O)Nc1cc(C(=O)N(C)Cc2ccccc2)ccc1S(=O)(=O)c1ccc(C)cc1
  -8 | -1.3 | 0.8% | 13 | 2% | -1 | /
- CN(C)/C=C/C(=O)c1ncc(C(F)(F)F)cc1Cl
  0 | 0.4 | -0.1% | -8 | 1% | -6 | -19
- COc1ccc(NC(=O)c2ccc([N+](=O)[O-])s2)c([N+](=O)[O-])c1
  15 | 4.6 | 1.2% | 4 | 6% | -1 | -6
- CCOCCCNC(=O)C(c1ccc(C)cc1)N(Cc1ccc2c(c1)OCO2)C(=O)c1ccccn1 (stereo unspecified)
  3 | 2.2 | -0.8% | -2 | 4% | 5 | 4
- O=C1C2C3C=CC(CC3)C2C(=O)N1c1ccc([N+](=O)[O-])cc1 (stereo unspecified)
  -1 | 1.3 | 0.1% | 0 | 5% | 11 | 6
- O=C(c1cccs1)N1CCN(S(=O)(=O)c2ccccc2)CC1
  0 | 0.5 | -1.0% | 11 | 16% | 3 | -1
- CN1C(=O)C2(C(C#N)=C(N)Oc3n[nH]c(-c4ccc(Cl)cc4)c32)c2ccccc21 (stereo unspecified)
  ? | 3.7 | 3.9% | -10 | 11% | -2 | 0
- CC(C)CCNCC(=O)NC(c1ccccc1)c1ccccc1
  -20 | -3.7 | 1.5% | -12 | -4% | 0 | 2
- C#CCOCCOCCOCCNc1nc(OC)nc(N2CCN(C(=O)[C@H](CCC(=O)O)n3cc(C(N)CO)nn3)CC2)n1 (stereo partly specified)
  -8 | -1.3 | 0.3% | -21 | / | -10 | 0
- CCCCn1c(=O)c(F)cn(Cc2ccc(OC)c([N+](=O)[O-])c2)c1=O
  -11 | -6.0 | 2.6% | 8 | 23% | 1 | 9
- Cc1nc(NC(=O)CSC2=NCCS2)sc1C(=O)N(C)C
  -2 | -2.2 | -0.6% | 13 | 1% | -18 | -4
- COC(=O)c1ccccc1NS(=O)(=O)c1ccc2c(c1)oc(=O)n2C
  -3 | -3.2 | 9.0% | -12 | 18% | 3 | 3
- COc1ccc(-c2cc(C(=O)Nc3cccc(Cl)c3)no2)cc1
  4 | -2.4 | 0.7% | -6 | 11% | 3 | -1
- O=C(NCCc1c[nH]c2ccccc12)c1cnc2sccn2c1=O
  4 | 7.4 | 0.8% | 19 | 16% | 16 | 0
- COc1ccc(C2c3c(-c4ccccc4O)n[nH]c3C(=O)N2CCc2ccc(OC)c(OC)c2)cc1 (stereo unspecified)
  14 | -0.5 | 2.2% | 6 | -15% | -29 | -27

Complete entries as entered above. Order of screens: D2 PAM | D2 ag | PINK1 modulator | TRPV1 potentiator | Sfp inh | Six1-Eya2 inh | CtBP-E1A inh
CN(C)/C=C/C(=O)c1ncc(C(F)(F)F)cc1Cl reads 0 | 0.4 | -0.1% | -8 | 1% | -6 | -19
O=C(c1cccs1)N1CCN(S(=O)(=O)c2ccccc2)CC1 reads 0 | 0.5 | -1.0% | 11 | 16% | 3 | -1
C#CCOCCOCCOCCNc1nc(OC)nc(N2CCN(C(=O)[C@H](CCC(=O)O)n3cc(C(N)CO)nn3)CC2)n1 (stereo partly specified) reads -8 | -1.3 | 0.3% | -21 | / | -10 | 0

Further results
Results follow in this order: D2 PAM | D2 ag | PINK1 modulator | TRPV1 potentiator | Sfp inh | Six1-Eya2 inh | CtBP-E1A inh
- O=C(Nc1nnc([C@@H]2C[C@H](O)[C@@H](CO)O2)s1)Nc1cccc2c1CCCC2
  -4 | -2.3 | 0.8% | / | / | 2 | -13
- O=C(COc1ccc(S(=O)(=O)N2CCOCC2)cc1)Nc1ccc2c(c1)OCCO2
  4 | -3.9 | / | 3 | 0% | -10 | -21
- CCc1cccc(NC(=O)Cc2ccc(OC)c(OC)c2)c1
  -12 | -1.1 | -1.2% | -24 | -7% | 9 | 1
- O=C(COc1cccc(Oc2ccccc2)c1)Nc1ncccn1
  10 | 1.7 | 3.1% | 7 | -18% | -28 | 1
- COc1cc(C(C)=O)ccc1OCC(O)CNCC1(N2CCCCC2)CCCCC1 (stereo unspecified)
  -14 | 0.0 | / | -11 | ? | -1 | 0
- COc1cccc(CNC(=O)CCc2nc3cc(S(=O)(=O)N4CCOCC4)ccc3n2C)c1
  -4 | 1.1 | 6.0% | 18 | / | -2 | 1
- O=c1c2ccccc2nc(CSc2ncnc3nc[nH]c23)n1-c1cccc(C(F)(F)F)c1
  -6 | -3.3 | -0.2% | 5 | -8% | 7 | -3
- Cc1cccc(NC(=O)c2ccc(NC(C)c3ccccc3)c([N+](=O)[O-])c2)n1 (stereo unspecified)
  -1 | 0.1 | 2.4% | 3 | -8% | 0 | -18
- Cc1ccc(S(=O)(=O)CCC(=O)OCC(=O)N2CCN(c3ccccc3)CC2)cc1
  -7 | -4.7 | 3.5% | -2 | / | 0 | 2
- O=C(O)C1C(C(=O)O)C1(c1ccccc1)c1ccccc1 (stereo unspecified)
  2 | -1.4 | 1.3% | -1 | 6% | 9 | 8
- CC1CCc2nc(NC(=O)C3CC3)sc2C1 (stereo unspecified)
  17 | -2.4 | -1.1% | -15 | 9% | 0 | -1
- CCn1c(O)c(N=NC(=O)CNC(=O)c2ccco2)c2ccccc21
  -9 | -8.2 | 8.3% | 15 | 10% | 5 | /
- CC(CCc1ccccc1)NC(=O)c1cccc(F)c1 (stereo unspecified)
  -5 | -1.4 | 0.6% | -18 | 16% | 1 | 12
- O=S(=O)(Nc1cccnc1)c1cccs1
  6 | -3.0 | -1.9% | 2 | 0% | 11 | 8
- CCn1cc(C(=O)Nc2ccc(C)c([N+](=O)[O-])c2)cn1
  -28 | -6.0 | 0.5% | -11 | -19% | -2 | 0
- N#CCCn1cc(C(=O)Nc2ccccn2)c(-c2ccccc2)n1
  -24 | -4.0 | -0.2% | ? | 18% | -8 | -16
- Cc1ccc(S(=O)(=O)N(CC(=O)Nc2cccc(C)c2C)C(=O)N2CCN(C)CC2)cc1
  -4 | -2.4 | -1.7% | 10 | / | -4 | 8
- CCOC(=O)Cn1cc(C(=O)c2cccs2)c2ccccc21
  -3 | 0.7 | -1.7% | -7 | 19% | 1 | -1
- O=P(Cc1ccccn1)(c1ccccc1)c1ccccc1
  2 | -1.3 | 1.2%[38.3 µM] | 29 | 6% | 9 | 7
- O=C(NCC1CCCO1)c1ccc2c(c1)N(Cc1ccccc1)CCS2 (stereo unspecified)
  -3 | -0.2 | -0.5% | -1 | 0% | 6 | 0

An excerpt from above with just CtBP-E1A inh, TRPV1 potentiator and Six1-Eya2 inh.
mol	CtBP-E1A inh	TRPV1 potentiator	Six1-Eya2 inh
O=C(O)C1C(C(=O)O)C1(c1ccccc1)c1ccccc1 (stereo unspecified)	8	-1	9
CC1CCc2nc(NC(=O)C3CC3)sc2C1 (stereo unspecified)	-1	-15	0

Continued:
Results follow in this order: D2 PAM | D2 ag | PINK1 modulator | TRPV1 potentiator | Sfp inh | Six1-Eya2 inh | CtBP-E1A inh
- CCCCCCN1CCN(C2CN(Cc3cn(Cc4cc(C)cc(C)c4)nn3)S(=O)(=O)C2)CC1 (stereo unspecified)
  / | / | -1.1% | / | / | -6 | -9
- Cc1c(CC(=O)N2CCN(C(=O)C3COc4ccccc4O3)CC2)c(=O)oc2cc(O)ccc12 (stereo unspecified)
  7 | 3.0 | 1.1% | 9 | 13% | 2 | 3
- Fc1ccc(SCCc2ccncc2)cc1
  -4&-9 | 1.5&-2.2 | 13%[38.3 µM] | -16&24 | 0%&10% | 0&5 | 8&-6
- CN1OC[C@@H]2C(=O)N3CCc4c([nH]c5ccccc45)[C@@H]3C[C@@H]21
  0 | 4.3 | 2.1% | / | / | 18 | 6
- COc1cc(/C=C(/C#N)c2ccc(F)cc2)ccc1OCc1ccc(C(=O)O)o1
  -1 | 1.3 | 8.8%[38.3 µM] | -1 | -1% | 0 | 3
- CC(=O)N1CCOCCOCCOCC1
  -7 | -3.1 | 1.4% | -18 | 17% | 7 | 1
- COc1cccc(NC(=O)C2C3C=CC(C3)C2C(=O)O)c1 (stereo unspecified)
  -6 | -1.7 | -0.4% | 2 | -14% | 4 | -5
- O=S(=O)(c1ccccc1)N1CCN(C/C=C/c2ccccc2)CC1
  -20 | -1.8 | 1.4% | 24 | 2% | -5 | -12
- COc1ccc(OC)c(N=CC2=C(O)CC(C)(C)CC2=O)c1
  9 | -0.5 | / | 0 | -6% | -7 | -3
- COc1ccc(-c2nnc(Nc3ccc(OC)c(C(=O)N4CCCCC4)c3)c3ccccc23)cc1
  -23 | 0.2 | 0.0% | -1 | -11% | -11 | -7
- COc1ccccc1C(C)N(C)Cc1nc(COc2ccccc2)no1 (stereo unspecified)
  1 | -0.1 | 1.6% | -6 | 5% | -3 | 7
- Cc1cc(C)nc(N(C#N)Cc2ccc([N+](=O)[O-])cc2)n1
  -4 | -1.3 | 1.0% | 2 | 12% | 0 | 5
- O=C(NC1CCCC1)c1cc2nc(-c3ccccc3)cc(-c3ccccc3)n2n1
  -11 | -6.4 | 2.6% | -19 | -9% | 4 | /
- CC12CCC(C/C1=N/NC(=O)Nc1ccccc1)C2(C)C (stereo unspecified)
  -5 | -6.9 | 19% | -3 | -4% | 2 | /
